High-throughput results as filed in PubChem BioAssay.
HNF4A DNA FP = change in binding of human HNF4 alpha to DNA. P41235. HNF4a-FITC DNA binding, fluorescence polarization, 1 h. activity change, % at 10 µM. actives 0.3% (n = 360,000); in the data active = activity change above about 30%, passing the limit was not always enough;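 note: controls were the assay level and a saturating level of protein; the project sought stronger binding though the title names inhibitors; some compounds called inactive have numbers as strong as hits; positive values seem to mean higher polarization but the record does not say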
Beta2AR agonist = agonists of human beta-2 adrenergic receptor inducing internalization; response, % (test concentration not listed); AID 504454; actives 0.43% (n = 340,000); P07550; Am2.2-beta2AR cells, FAP receptor internalization, flow cytometry; reference of the scale not given here;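 active = response above a set limit, near 3 SD of response in nonfluorescent compounds, cut at about 42% in these data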;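 note: stock transfer was 100 nL into about 11 µL; a reference agonist was the positive control; negative values mostly stem from fluorescent compounds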
Target sequence (P07550 whole entry, looked up): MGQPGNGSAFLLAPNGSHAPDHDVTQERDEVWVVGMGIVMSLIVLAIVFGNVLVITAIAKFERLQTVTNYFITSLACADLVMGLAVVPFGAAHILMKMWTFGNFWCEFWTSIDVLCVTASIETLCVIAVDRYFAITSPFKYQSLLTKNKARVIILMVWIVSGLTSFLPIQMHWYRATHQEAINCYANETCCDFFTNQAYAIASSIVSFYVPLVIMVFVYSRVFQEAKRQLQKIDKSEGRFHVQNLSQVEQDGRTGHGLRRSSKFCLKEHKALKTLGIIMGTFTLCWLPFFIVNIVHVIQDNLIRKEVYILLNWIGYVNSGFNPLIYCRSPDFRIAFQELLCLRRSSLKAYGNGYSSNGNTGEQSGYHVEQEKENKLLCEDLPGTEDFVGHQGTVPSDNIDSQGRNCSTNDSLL
UCH37 inh = blocks the human deubiquitinase UCH37; purified proteasome/UCH37, Ub-AMC cleavage fluorescence; inhibition, % (test concentration not listed); actives 0.33% (n = 330,000); AID 588478;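 active = mean of two replicates above 20%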;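 note: 0% = compound-free wells with enzyme and 100% = wells lacking proteasome; stock transfer was 100 nL into about 20 µL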
Target sequence (Q9Y5K5 whole entry, looked up): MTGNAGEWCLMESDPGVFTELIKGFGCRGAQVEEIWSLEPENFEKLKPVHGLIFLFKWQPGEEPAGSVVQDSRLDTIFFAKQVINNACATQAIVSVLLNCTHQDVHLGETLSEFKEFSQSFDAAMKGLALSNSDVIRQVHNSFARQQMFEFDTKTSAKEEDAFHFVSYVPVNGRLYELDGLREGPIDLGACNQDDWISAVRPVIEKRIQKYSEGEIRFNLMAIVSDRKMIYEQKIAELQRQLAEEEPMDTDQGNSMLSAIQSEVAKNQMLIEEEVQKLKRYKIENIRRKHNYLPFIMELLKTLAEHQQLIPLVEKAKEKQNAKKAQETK
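Material: Human UCH37 enzyme supplied as purified proteasome complex | Schedule: 30 min preincubation with enzyme, 25 min cleavage at room temperature | Detection: AMC fluorescence 355/460 nm | Measure: % inhibition of Ub-AMC cleavage fluorescence | Controls: Wells without proteasome as full block, compound-free enzyme plus substrate as uninhibited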
FGF22 binding = FGF22 (human) thermal shift binding | recombinant FGF22 thermal shift, SYPRO orange fluorescence; percent of sucrose octasulfate shift, DMSO zero | calls only at 9.99 µM | actives 1.5% (n = 340,000);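 active = melting point raised past a set limit in the mean and every replicate; inconclusive = no clear call; three in four hits are not shown here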
Target sequence (Q9HCT0 whole entry, looked up): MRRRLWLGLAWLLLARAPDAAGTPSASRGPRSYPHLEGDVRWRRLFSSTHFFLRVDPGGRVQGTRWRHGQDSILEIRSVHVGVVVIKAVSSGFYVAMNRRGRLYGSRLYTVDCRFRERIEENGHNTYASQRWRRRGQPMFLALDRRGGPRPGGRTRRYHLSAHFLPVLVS
Ecoli rRNA inh = inhibits bacterial ribosomal RNA function over humanized ribosomes; GFP signal change (wild-type ribosome), % (test concentration not listed); actives 1.6% (n = 350,000); E. coli WT GFP vs humanized-ribosome RFP mutants, fluorescence, 24 h; hits give low values; DMSO median 0, no signal -100;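 active = significant combined selectivity score with lowered wild-type GFP, culture density cut under 30%, mutant RFP and density less affected; inactive = any of these conditions unmet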; note: one replicate is shown; some compounds called inactive have numbers as strong as hits
Ecoli growth = blocks Escherichia coli growth; OD600, 23 h; hits give low values; OD600 absorbance (test concentration not listed); actives 0.21% (n = 330,000);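 active = OD600 absorbance below the run mean of sample wells minus 3.6 SD, in any replicate, cut at about 0.56 in these data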;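 note: stock transfer was 300 nL into about 60 µL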
ALR inh = blocks human ALR sulfhydryl oxidase activity. P55789. purified ALR, DTT oxidation, H2O2 HRP-luminol luminescence. inhibition, % (test concentration not listed). actives 3.8% (n = 290,000). AID 485317;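 active = mean and each replicate at 75% or more; inconclusive = only one of the two met; inactive = neither met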;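 note: stock transfer was 7.5 nL into about 7.5 µL; 0% = neutral wells and 100% = wells with inactivated enzyme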
Ecoli rRNA inh OD600 = second read-out of Ecoli rRNA inh, no call of its own (marks repeat the call); OD600 change, %; measured here: OD600 growth;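 optical density of the mix in the first replicate; 0 = DMSO median and -100 = no signal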
Ecoli rRNA inh RFP = second read-out of Ecoli rRNA inh, no call of its own (marks repeat the call); RFP signal change, %; measured here: RFP humanized mutant strains;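 first replicate; 0 = DMSO median and -100 = no signal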
Active calls of the source: *; i = inactive; u = inconclusive; x = not tested or not shown. An excerpt, so the mix of outcomes need not match the whole.

Every second line gives: HNF4A DNA FP	Beta2AR agonist	UCH37 inh	FGF22 binding	Ecoli rRNA inh	Ecoli rRNA inh OD600	Ecoli rRNA inh RFP	Ecoli growth	ALR inh
COc1ccc(O)c(C(=O)c2cnn(C(=O)c3ccc(C)cc3)c2)c1
    23	10	-5.9	i	x	x	x	0.7	11
O=C1c2ccccc2C(O)(Cc2ccccc2)N1C1CCCCC1 (stereo not drawn)
    x	x	2.9	x	x	x	x	0.65	-4
CCOc1ccc(NC(=O)C2CSC(c3ccncc3)=N2)cc1 (stereo not drawn)
    -3.0	3	3.8	i	-5	-5	-3.9	0.76	-14
O=C(O)CCCn1nc(C(F)(F)F)c2c1CCCCC2
    1.5	1	2.1	x	x	x	x	0.68	3
O=C(O)c1cc(NC(=O)c2cccc(C(=O)Nc3cc(C(=O)O)cc(C(=O)O)c3)c2)cc(C(=O)O)c1
    -1.2	12	4.2	i	0	1	-0.8	0.62	5
COCCOC(=O)C1=C(C)NC(=S)NC1/C=C/c1ccccc1 (stereo not drawn)
    -4.0	-18	1.1	x	x	x	x	0.68	-2
CSc1ncc(C(=O)Nc2ccccc2)cn1
    3.6	-7	1.1	i	12	6	3.6	0.67	-3
Cc1cc(N=Nc2ccccc2)c(NCC(O)C(O)C(O)CO)cc1C (stereo not drawn)
    5.4	4	15	i	-61	-66	-8.4	0.71	98*
O=C(Cn1c(N2CCN(c3ccccc3)CC2)nc2ccccc21)c1ccccc1
    0.5	-2	3.6	x	x	x	x	0.77	-11
Cc1ccccc1NC(=O)c1ccc(NC(=O)C2CCCO2)cc1 (stereo not drawn)
    0.8	2	4.7	x	x	x	x	0.69	-3
O=C1CCCN1CN(C(=O)c1ccccc1)c1ccccc1
    0.8	-8	0.0	x	14	15	2.4	0.69	-1
CCc1ccccc1NC(=O)c1ccc(S(=O)(=O)N2CCCC2)cc1
    -0.7	0	1.6	i	-6	-7	-2.2	0.6	-4
O=C(NN1CCOCC1)c1cccc(COc2cccc(Br)c2)c1
    1.2	-2	3.4	i	21	19	0.8	0.69	-6
O=C(O)Cn1c(=S)sc2ccccc21
    0.0	-1	5.1	i	0	8	-0.9	0.77	-30
CC(=O)c1ccc(S(=O)(=O)N2CCC3(CC2)OCCO3)cc1
    0.1	1	-2.2	i	9	10	-0.3	0.73	-2

Structures listed above printed as active in ALR inh.
Every second line gives: HNF4A DNA FP	Beta2AR agonist	UCH37 inh	FGF22 binding	Ecoli rRNA inh	Ecoli rRNA inh OD600	Ecoli rRNA inh RFP	Ecoli growth	ALR inh
Cc1cc(N=Nc2ccccc2)c(NCC(O)C(O)C(O)CO)cc1C (stereo not drawn)
    5.4	4	15	i	-61	-66	-8.4	0.71	98*

(list continues)
Every second line gives: HNF4A DNA FP	Beta2AR agonist	UCH37 inh	FGF22 binding	Ecoli rRNA inh	Ecoli rRNA inh OD600	Ecoli rRNA inh RFP	Ecoli growth	ALR inh
COc1ccc(CCNC(=O)c2ccc(NS(=O)(=O)c3c(C)noc3C)cc2)cc1OC
    -1.1	0	1.9	x	x	x	x	0.72	-18
O=[N+]([O-])c1ccc(Sc2cccc[n+]2[O-])c2nonc12
    -1.6	8	15	i	16	-80	-8.9	0.086*	x
CC1(C(=O)NCc2ccccc2)CSCC(=O)N1C1CCN(Cc2ccccc2)CC1 (stereo not drawn)
    -1.0	x	x	i	-3	-8	-1.7	x	x
CC(C)CCn1c(N2CCOCC2)nc2c1c(=O)n(CC(N)=O)c(=O)n2C
    -1.4	-8	0.8	x	x	x	x	0.71	5
COc1ccc(S(=O)(=O)N2CCCC2C(=O)Nc2nccs2)cc1 (stereo not drawn)
    0.7	-21	2.1	x	x	x	x	0.74	2
Cn1c(NNC(=O)C(c2ccccc2)c2ccccc2)cc(=O)n(C)c1=O
    2.4	2	0.6	x	4	3	-0.5	0.69	24
CC1Cc2nc(SCC(=O)N3CCOCC3)n(-c3ccccc3)c(=O)c2S1 (stereo not drawn)
    0.3	-2	1.1	i	-3	-24	1.0	0.66	99*
CN(CC(=O)Nc1ccc(N2CCOCC2)cc1)C(=O)C12CC3CC(CC(C3)C1)C2
    -2.0	-4	2.1	i	-4	-7	-1.8	0.58	16
CC(C)[C@H](NC(=O)c1ccco1)C(=O)OCC(=O)Nc1ccc(F)cc1
    1.8	13	-3.1	i	9	10	3.8	0.68	-1
O=C(NCc1ccc(F)cc1)Nc1ccccc1
    -1.1	-10	3.5	i	12	4	1.8	0.72	-6
N=c1c(C(=O)NCC2CCCO2)cc2c(=O)n3ccccc3nc2n1Cc1ccccc1Cl (stereo not drawn)
    2.9	1	x	i	0	16	4.6	x	10
O=C(NC(=S)Nc1cccc(Cl)c1N1CCCCC1)c1cccs1
    0.4	3	4.0	i	20	-4	34	0.72	-3
CC1CCN(C(=O)C2CCN(C(=O)c3cc4sccc4n3Cc3ccc(F)cc3)CC2)CC1
    0.5	14	3.1	x	x	x	x	0.64	-3
c1cn2cc(-c3ccc4c(c3)OCO4)nc2s1
    5.3	-7	3.5	x	-5	2	-1.3	0.71	95*
Cc1ccc([N+](=O)[O-])cc1S(=O)(=O)Nc1ccc(N2CCOCC2)cc1
    5.0	-9	3.9	i	5	16	2.9	0.7	99*
Cc1ccc(OCCn2c(SCCO)nc3c(N)ncnc32)cc1
    2.6	-11	3.6	i	14	8	3.8	0.68	-2
Cn1cnnc1SC(C(=O)Nc1ccc(F)cc1)c1ccccc1 (stereo not drawn)
    -0.5	-7	19	x	4	6	1.3	0.67	-6
COc1ccc(-c2cc(=O)c3c(OC)c(OC)c(OC)c(OC)c3o2)cc1OC
    -3.9	16	-12	i	-24	-33	-3.7	0.66	x
COc1cc(Br)cc2cc(C(=O)OC3CCN(C)CC3)c(=O)oc12
    -0.6	-3	6.2	x	x	x	x	0.71	x
Cc1cccc(NC(=O)COC(=O)C2COc3ccccc3O2)c1C (stereo not drawn)
    -0.7	-1	0.5	i	4	13	-0.8	0.7	0
Cc1nc2ccccc2c(=O)n1N
    -3.7	8	-2.2	x	x	x	x	0.74	-11
CCCn1c(N)c(N(CCOC)C(=O)c2c(CC)noc2C)c(=O)[nH]c1=O
    -0.3	4	0.2	i	5	6	-1.4	0.68	x
Cc1ccccc1Nc1nnc(SCC(=O)NCc2ccco2)s1
    -0.8	-6	2.5	x	x	x	x	0.65	1
COc1cc(C(=O)NNC(=O)C2CC2)cc(OC)c1OC
    0.8	-5	5.9	i	15	17	2.5	0.7	1
O=[N+]([O-])c1ccc(C[n+]2cc(-c3ccc(Cl)c(Cl)c3)n3c2CCCCC3)cc1
    -2.4	1	11	i	-49*	-28*	-15*	0.64	x
COc1ccc(Nc2nnc(SCC(=O)Nc3ccc4[nH]c(=O)[nH]c4c3)s2)cc1
    -0.4	2	-0.1	i	18	8	2.7	0.74	-3
CCc1ccc(-n2c(SCc3c(C)noc3C)nnc2-c2ccncc2)cc1
    -0.7	0	5.7	x	x	x	x	0.76	-8
CC(=O)N1CCc2cc(S(=O)(=O)CCC(=O)Nc3ccccc3F)ccc21
    -2.6	9	1.4	i	8	3	-0.5	0.7	-5
COc1ccc(C2=C(Nc3ccccc3)c3ccccc3C2=O)cc1
    -4.4	-15	0.7	i	29	15	-7.1	0.67	x
CCOc1cccc(=O)c2c(C)oc(C)c12
    -3.4	0	2.1	i	15	-3	6.9	0.67	-1
Cc1cccc(CN2CCSc3sccc3C2=O)c1
    3.8	12	1.5	i	-26	-48	-6.3	0.67	-9
Cc1cc(C(=O)Nc2ccc(C)c(S(=O)(=O)N3CCOCC3)c2)c(C)o1
    1.4	0	-1.3	i	2	4	-1.5	0.64	x
O=C(/C=C/c1ccccc1Cl)NCCc1ccc(F)cc1
    0.9	-1	5.7	i	-19	1	9.6	0.71	-19
COc1ccc(-n2c(C)nc3cc(C(=O)NCCN4CCOCC4)ccc32)cc1
    -0.9	0	1.1	x	-4	6	-0.9	0.7	7
COc1ccc(C(=O)NCC(=O)N2CCN(c3ccccc3)CC2)cc1
    1.2	-3	-0.1	x	4	-1	-2.5	0.68	-1
CCCCOP(=O)(c1ccc(N(C)C)cc1)C(O)c1ccc(N(C)C)cc1 (stereo not drawn)
    -1.3	-2	2.4	i	6	0	1.6	0.68	92*
O=C(COC(=O)/C=C/c1ccccc1)NC(=O)NCc1ccccc1
    0.1	-4	-2.2	i	17	15	2.2	0.71	x
O=C(CSc1nc2ccc(Nc3nc(N4CCOCC4)nc(N4CCOCC4)n3)cc2s1)N1CCOCC1
    -0.6	15	2.8	x	x	x	x	0.71	u
CCCC(=O)n1nc(-c2ccc(OC)cc2)nc1N
    3.8	-2	-0.8	x	x	x	x	0.68	x
CCN1CCN(c2nc3ccccc3nc2C(C#N)S(=O)(=O)c2ccc(C)cc2)CC1 (stereo not drawn)
    1.9	-1	-4.1	x	x	x	x	0.67	9
Cn1nc(C(=O)NNC(=O)c2ccc(Cl)c(S(N)(=O)=O)c2)c2ccccc2c1=O
    -4.3	-4	x	i	-1	9	-3.4	x	-2
O=C1CC(N2CCSCC2)C(=O)N1c1cccc(Cl)c1 (stereo not drawn)
    -0.6	3	2.1	i	17	16	2.1	0.7	x
COc1ccccc1CN1C(=O)c2ccccc2C1C(=O)NC1CCC(C)CC1 (stereo not drawn)
    0.8	-9	3.1	i	-8	-22	6.9	0.69	82*
CN(CC(=O)Nc1cc(S(=O)(=O)N2CCCC2)ccc1Cl)Cc1nc2ccccc2c(=O)[nH]1
    1.8	8	-0.5	i	14	7	0.7	0.7	x
COc1ccc(OC)c(C(O)c2nc3ccccc3n2C)c1 (stereo not drawn)
    0.5	18	-1.1	i	2	6	-0.5	0.69	-12
CCOC(=O)N1CCN(c2c(N3CCc4ccccc43)c(=O)c2=O)CC1
    -1.8	4	18	i	0	7	-0.5	0.7	4

Arranged by the number under HNF4A DNA FP (low to high): some entries from above.
Every second line gives: HNF4A DNA FP	Beta2AR agonist	UCH37 inh	FGF22 binding	Ecoli rRNA inh	Ecoli rRNA inh OD600	Ecoli rRNA inh RFP	Ecoli growth	ALR inh
CCOC(=O)N1CCN(c2c(N3CCc4ccccc43)c(=O)c2=O)CC1
    -1.8	4	18	i	0	7	-0.5	0.7	4
COc1ccc(-n2c(C)nc3cc(C(=O)NCCN4CCOCC4)ccc32)cc1
    -0.9	0	1.1	x	-4	6	-0.9	0.7	7
CCCC(=O)n1nc(-c2ccc(OC)cc2)nc1N
    3.8	-2	-0.8	x	x	x	x	0.68	x
